# PINK1 expr mod: changes PINK1 expression. AID 624263. PINK1 immunofluorescence, high-content cytometry, 24 h. Potency, µM (highest dose often 76.6 µM), without a hit: top-dose activation (PINK1 increase), actives largely listed as activators. actives 0.2% (n = 410,000); active = well fitted activation curve with a large enough effect; inconclusive = small, poorly fitted or top-dose-only effect; inactive = flat fitted curve, though single readings scatter; cell line not stated here;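 note: potency is the fitted concentration of half-maximal effect; % of control where 0% means no effect; nearly all actives have a fitted effect of over 65% in size; a mitochondrial uncoupler was the plate control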
#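 Fluorescence from anti-PINK1 antibody, together with nuclear and cell stains, was scanned on a laser-scanning cytometer. Before staining, stable-line cells were incubated 24 hours with compounds at 5 concentrations; primary antibody 12 h at 10 degrees C.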
# TRPML1 agonist: agonists of human TRPML1 channel; actives 0.12% (n = 410,000); Q9GZU1; TRPML1-expressing cells, Ca2+ dye fluorescence, FDSS; host cell line not named in the record; reference of the full effect not given here; activation, % (concentration not given with the values); AID 624414; in the data active = activation above about 50%; inconclusive = about 30% to 50%; inactive = below about 30%; note: 0% is about no effect; the text of the record puts the active cut at 80%
# Target sequence (Q9GZU1 whole entry, looked up): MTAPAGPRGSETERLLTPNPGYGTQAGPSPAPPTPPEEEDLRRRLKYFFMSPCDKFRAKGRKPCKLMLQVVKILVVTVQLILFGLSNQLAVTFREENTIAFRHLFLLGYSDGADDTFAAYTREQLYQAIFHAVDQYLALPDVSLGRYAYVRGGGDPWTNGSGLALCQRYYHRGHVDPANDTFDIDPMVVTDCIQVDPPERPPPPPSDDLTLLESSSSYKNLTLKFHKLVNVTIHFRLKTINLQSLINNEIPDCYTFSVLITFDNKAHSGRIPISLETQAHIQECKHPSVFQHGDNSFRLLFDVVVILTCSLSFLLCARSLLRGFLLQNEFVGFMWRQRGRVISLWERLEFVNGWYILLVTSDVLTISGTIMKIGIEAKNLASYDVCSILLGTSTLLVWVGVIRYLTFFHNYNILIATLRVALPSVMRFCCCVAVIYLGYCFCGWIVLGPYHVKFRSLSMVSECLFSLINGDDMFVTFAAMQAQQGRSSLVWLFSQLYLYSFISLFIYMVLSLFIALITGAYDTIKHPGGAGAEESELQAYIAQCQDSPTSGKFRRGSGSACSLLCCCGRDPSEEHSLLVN
#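 TRPML1-DL cells, Tet-induced overnight (~16 h, 37 degrees C), loaded 45-90 min at room temperature with Ca8 no-wash calcium dye plus quencher. FDSS fluorescence: 10 s baseline, compound pin-transfer, 110 s agonist read, then EC80 54-4 (4uM final) and 110 s antagonist read.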
# TRPML1 blocker: inhibitors of human TRPML1 channel. activity change, negative = inhibition, % (concentration not given with the values). actives 0.02% (n = 390,000). TRPML1-inducible cells, Ca2+ dye fluorescence, FDSS; stronger effect = lower value; inhibition of EC80 agonist-evoked calcium signal. Q9GZU1; in the data active means activity change below about -50%; inconclusive means about -30% to -50%; inactive means above about -30%;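 note: stimulus is agonist 54-4 at its EC80 concentration; % is set by controls: 0 for no effect and ±100 for the full control effect; compound concentration not given in the record; the text of the record puts the active cut at -80%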
#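 Calcium fluorescence in TRPML1-DL cells induced overnight with Tet: a 110 s read after compound pin addition, then a 110 s antagonist read after challenge with 54-4 at 4 uM final (EC80).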
# Sfp inh: inhibitors of Bacillus subtilis Sfp phosphopantetheinyl transferase; Q9F4F7; Biochemical Sfp PPTase activity, qHTS; actives 3.5% (n = 310,000); Potency, µM, for inactives: max response, negative = inhibition, actives largely listed as inhibitors; AID 1490; active = well fitted inhibition curve with a large enough effect; inconclusive = small, poorly fitted or top-dose-only effect, or another doubt; inactive = no such curve, though single readings can be large or run the other way;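 note: the enzyme is Sfp with the accession as filed and its product quenches rhodamine fluorescence; potency is the fitted concentration of half-maximal effect; 0% = enzyme reaction without inhibitor and -100% = no enzyme wells; top concentration of the series not given in the record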
#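 Compounds were incubated with enzyme (final 15 nM) for 15 min at room temperature before substrate addition started the reaction. Fluorescence at 525 nm excitation, 598 nm emission was recorded immediately and after 30 minutes.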
# Menin MLL FP FL: menin-MLL binding inhibition, fluorescein peptide; Fluorescence polarization, fluorescein-MLL peptide displacement from menin; FP activity change, % at 61.4 µM; 290,000 tested, under 10 active; AID 1766; inconclusive = falling polarisation curve, or a change in total fluorescence; inactive = total fluorescence flat and polarisation flat or rising; no compound was filed as active; the % refers to the polarisation; negative = inhibition;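 note: % of control where 0% means no effect; inhibitors lower the polarisation; unlabelled MLL peptide was the positive control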
# TRPV1 PAM: human TRPV1 potentiation; Q8NER1; TRPV1-expressing cells, Fluo-8 calcium influx, capsaicin EC20 potentiation; host cell line not named in the record; control for the full effect not named in the record; potentiation, % at 8.33 µM; actives 0.02% (n = 320,000); AID 540277; active means potentiation above 80%; inconclusive means 30% to 80%; inactive means below 30%; note: 0% is about no effect
#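 Cells expressing TRPV1 were dye-loaded with Fluo-8 and read kinetically: 10 s baseline, 3 min after compound (agonist portion), then 2 min after EC20 capsaicin (allosteric enhancer portion). Calcium-bound dye fluorescence at 480/520 nm.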
# ClpP mod: qHTS Assay for Activators of ClpP. ATP-dependent Clp protease proteolytic subunit (Bacillus subtilis (strain 168)), P80244. actives 1.9% (n = 340,000). AID 651965, 2013. Potency, µM (top dose mostly 57.5 µM), for the others: at the highest dose activity change, negative = active. purified B. subtilis ClpP, FRET peptide cleavage, 20 min; active = well fitted falling curve with a large enough effect; inconclusive = small, poorly fitted or top-dose-only effect; inactive = no such curve, though single readings can be large or run the other way; note: potency is the fitted concentration of half-maximal effect; the source files actives as falling curves though it sought activators and does not explain the sign; nearly all actives have a fitted effect of over 65% in size; many hits overshoot -100%
# Target sequence (P80244 whole entry, looked up): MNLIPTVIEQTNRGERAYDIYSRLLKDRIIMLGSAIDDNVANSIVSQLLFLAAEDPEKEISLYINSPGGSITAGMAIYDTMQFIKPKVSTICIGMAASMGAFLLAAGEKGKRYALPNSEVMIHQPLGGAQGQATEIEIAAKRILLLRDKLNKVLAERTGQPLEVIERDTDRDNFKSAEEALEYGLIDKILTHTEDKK
#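 Buffer: 100 mM Tris/HCl pH8, 100 mM KCl, 0.05% low protease BSA, 2.5% glycerol, 0.01% Tween-20. ClpP 10 microg/mL final; 20 min RT; delta FRET normalized to ADEP and DMSO controls.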
# Numbers without * were called inactive; ? = inconclusive; . = not tested or not shown; & = joins results of further samples; [ ] = remark or other dose.
SMILES,PINK1 expr mod,TRPML1 agonist,TRPML1 blocker,Sfp inh,Menin MLL FP FL,TRPV1 PAM,ClpP mod
CCS(=O)(=O)N1CCC(C(=O)NCc2ccc(F)cc2Cl)CC1,.,-0.3,-1,1%,3.1,-5,-9.5%
Fc1ccccc1COc1ccc(-c2nnn(Cc3ccccc3F)n2)cc1,9.0%,1.1,-6,?,0.5,3,-0.2%
O=C(Cn1ccc2cc(S(=O)(=O)N3CCCC3)ccc21)NCc1ccco1,1.7%,0.3,19,5%,-7.5,-1,-4.4%
CCOC(=O)c1c(NC(=O)COc2ccc(Cl)cc2C)sc2c1CCCCC2,0.2%,1.4,-17,.,.,.,-2.6%
Cc1ccnc(NC(=O)c2ccccc2NC(=O)c2ccc(Cl)cc2Cl)c1,6.1%,0.2,2,-26%,0.1,-4,-1.9%
CC(C)c1ccc(NC(=S)NNC(=O)c2cccs2)cc1,3.2%,0.7,18,8%,0.3,-17,.
CCN(CC)C(=O)C1=C(C)N(Cc2ccc(F)cc2)C(=O)C(CC(=O)NC2CCCC2)C1 (centres undefined),0.8%,0.0,?,.,.,.,1.2%
CCc1nnc(NC(=O)C2Cc3ccccc3CN2S(=O)(=O)CC)s1 (centres undefined),-0.4%,-0.8,-2,13%,-1.0,?,-0.6%
O=C(O)c1cccc(-c2ccc(/C=c3/sc4nc5ccccc5n4c3=O)o2)c1,5.0%,23,-3,?,?,.,2.3%
CCCS(=O)(=O)N1CCCC(c2nc(-c3ccc(OC)cc3)no2)C1 (centres undefined),.,0.9,17,9%,-8.7,5,1.2%
O=C(NCCN1CCc2ccccc2C1)Nc1ccc(F)cc1,0.7%,0.3,9,12%,-0.2,0,-0.1%
COc1ccccc1NC(=O)Cn1nnc(-c2ccccc2NS(=O)(=O)c2ccccc2)n1,1.7%,2.1,4,0%,0.0,1,1.1%
CN(Cc1ccc2ccccc2c1)C(=O)c1ccc(C(F)(F)F)cc1,2.5%,1.3,41,7%,-4.4,1,.
CC(=O)N=C1SC2CS(=O)(=O)CC2N1c1ccccc1Cl (centres undefined),2.0%,0.3,6,-9%,0.3,9,1.5%
Cc1cc(C)c(NC(=O)CN(C)S(=O)(=O)c2ccc3c(c2)c(=O)n(C)c(=O)n3C)c(C)c1,-0.7%,0.0,28,.,.,.,-5.3%
COCC(=O)N1CCC2(CC1)CCN(c1ccc(-c3ccccc3)cc1)CC2,-0.9%,.,.,6%,5.3,.,.
Cc1cccc(N(C)S(=O)(=O)c2c(C(=O)N3CCCCCC3)c(C)n(C)c2C)c1,-1.5%,0.4,7,.,.,.,-0.3%
O=C(O)c1ccc(Cl)c(S(=O)(=O)N2CCC(Cc3ccccc3)CC2)c1,0.0%,0.0,4,6%,5.7,24,.
CCN=C1S/C(=C\c2sccc2C)C(=O)N1CC,3.5%,1.6,14,-7%,5.3,-8,.
Cc1ccc(N(CC(=O)N2CCOCC2)S(=O)(=O)c2ccccc2)cc1,-0.7%,1.8,-14,15%,3.4,-40,0.4%
O=C(C1=C(O)C(=O)N(CCOCCO)C1c1cccc([N+](=O)[O-])c1)c1cccs1 (centres undefined),0.1%,0.3,-8,0%,-0.6,4,1.0%
Cc1ccc(C2CC(c3cccs3)n3nc(N)nc3N2)cc1 (centres undefined),-0.3%,0.7,-6,-2%,-0.5,3,-13%
CN(C)CCN(Cc1ccco1)C(=O)c1oc2ccccc2c1NC(=O)c1cccc(F)c1,8.5%,1.5,-13,.,.,.,-4.9%
CCOc1ccc(-c2c(C)nn3c(C)c(C(=O)NCc4ccc(C)o4)cnc23)cc1OCC,14%,2.3,15,.,.,.,0.7%
CCCc1ccc(C(=O)O/N=C(\N)c2ccccn2)cc1,-2.2%,-0.9,-5,18%,1.0,-17,.
Cc1cc(C)n(CC(=O)Nc2cccc(C(F)(F)F)c2)n1,3.6%,0.4,9,12%,-7.4,-40,-0.9%
Cc1ccc(N2CCN(C(=O)N3CCCC3)CC2)cc1Cl,1.6%[38.3 µM],0.4,13,1%,-1.4,-8,2.3%
Oc1ccccc1-c1cc(C(F)(F)C(F)F)nc(-c2ccccc2)n1,29%[38.3 µM],2.9,19,28%,2.8,?,-0.2%
C/C=C/C=[N+](\[O-])C(C)/C(=N/O)c1ccc(F)cc1 (centres undefined),-5.3%[38.3 µM],0.1,-14,16%,-0.2,12,-4.4%
O=C(CC[C@H]1O[C@@H](n2ccc(=O)[nH]c2=O)[C@H](O)[C@@H]1O)N[C@@H](Cc1ccccc1)C(=O)NCc1ccccc1,3.6%,0.5,-13,.,.,.,-12%
CN1CCN(c2ncnc3ccc(-c4ccoc4)cc23)CC1,-0.3%,.,.,17%,-5.0,.,.
O=C(Cn1[nH]c(=O)c2ccccc2c1=O)NCCN1C(=O)S/C(=C\c2ccccc2)C1=O,5.3%,4.2,-14,.,.,.,-8.1%
CCc1cc(-c2nnn(CCC3COCCO3)c2CC)ccc1-c1cn(Cc2ccc3ccccc3c2)nn1 (centres undefined),-0.4%,1.2,-9,.,.,.,?
COc1ccc(NCc2nc3ccccc3n2CCOc2ccc(C)cc2)cc1,?,2.1&0.0,35&48,-9%,3.4,9,-3.9%&0.5%
CCCc1nnc(NC(=O)c2c(O)c3c([nH]c2=O)CCCC3)s1,.,-0.2,-12,20%,-2.3,-20,2.2%
CCN(CCCNC(=O)c1ccc(Sc2ccc(F)cc2)c(NC(C)=O)c1)c1ccccc1,-0.4%,-0.2,-6,.,.,.,-1.2%
CCOCCCn1c(=S)[nH]c2cc(C(=O)NCCOC)ccc2c1=O,3.0%,2.4,23,79µM*,1.2,-10,0.7%
O=[N+]([O-])c1ccc(CN2[C@H](COCc3ccccc3)[C@@H](N3CCCC3)CS2(=O)=O)cc1,-0.3%,0.7,13,.,.,.,-0.5%
O=C(Cc1ccccc1)c1ccc(Cl)cc1,6.0%,0.1,3,-14%,1.4,-12,-4.2%
COc1cc2c(cc1OC)C(CC#N)=NC(C)(C)C2,-1.4%,0.3,-1,79µM*,0.2,5,-2.9%
Cc1onc(-c2c(F)cccc2Cl)c1C(=O)NC(C)c1ccccc1 (centres undefined),1.5%,0.4,-5,5%,-16,23,.
Cc1cccc(NC(=O)Nc2cnccn2)c1,0.4%,0.7,9,-4%,0.2,1,-14%
CCCN1C(C(=O)c2ccccc2)=C(OC(=O)c2ccc(C)cc2)c2ccccc2S1(=O)=O,-0.2%,-0.3,20,.,.,.,-0.5%
CCOc1ccc(N2C(=O)S/C(=C\c3cc(OC)c(OC)c(OC)c3)C2=O)cc1,11%,-0.8,-9,26%,2.8,-8,.
CCCOC1(C(F)(F)F)NC(=O)N(c2cccc(Cl)c2)C1=O (centres undefined),1.9%,1.3,-4,.,.,.,1.7%
CCc1nc2c(OCc3ccc(OC)cc3)cccn2c1N(C)C(=O)c1ccco1,0.2%,-0.5,-23,.,.,.,1.4%
Cc1ccc(CNC(=O)[C@H]2O[C@@H](n3cnc4c(N)ncnc43)[C@H](O)[C@@H]2O)o1,0.9%,-0.4,-18,.,.,.,-5.6%
COc1ccc(S(=O)(=O)Nc2cccc(-c3ccc(N4CCCCCC4)nn3)c2)c(OC)c1,0.9%&1.1%,1.8&-0.4,5&-22,?,.,-5,-8.1%&-0.1%
COc1ccc(C(=O)C2CCCN(C(=O)Cc3c(C)noc3C)C2)cc1OC (centres undefined),2.2%,0.5,8,7%,0.7,-25,.
Cc1cc(C)n2nc(C(=O)Nc3ccc4c(c3)OCO4)cc2n1,-4.2%[38.3 µM],0.1,7,12%,3.6,8,-1.8%
# (further entries)
SMILES,PINK1 expr mod,TRPML1 agonist,TRPML1 blocker,Sfp inh,Menin MLL FP FL,TRPV1 PAM,ClpP mod
COc1ccccc1NC(=S)NCc1ccccc1Cl,-1.3%,-0.6,7,3%,3.1,6,-0.9%
Cc1c2cnn(CC(=O)Nc3cccc(C(F)(F)F)c3)c(=O)c2c(C)n1Cc1ccccc1Cl,-0.2%,1.2,15,.,.,.,-16%
O=c1cc2c(n[nH]1)-c1ccccc1CC2,-3.0%,1.0,-1,15%,-2.1,27,-12%
N#CC(c1ccccc1)c1ccc(=O)[nH]n1 (centres undefined),1.8%,0.0,-5,12%,1.8,-2,.
O=C(Nc1ccccc1)c1cccc(C(=O)Nc2ccccc2)n1,12%,4.6,0,17%,.,21,68%
C[N+]1(CC2COC3(CCCCC3)O2)CCCC1 (centres undefined),8.6%,-0.1,1,-9%,0.4,?,-2.3%
CCOC(=O)c1c(-c2cc(OC)c(OC)c(OC)c2)csc1NC(=O)c1ccccc1,1.1%,1.4,5,.,.,.,?
O=C(CC1C(=O)NCCN1Cc1cccc(Oc2ccccc2)c1)NCCn1cccn1 (centres undefined),0.7%,0.5,27,-8%,-15,-1,-2.7%
COc1ccc(C(=O)c2ccc(OC)cc2OC)cc1,3.0%,0.8,16,7%,4.3,-22,.
O=C(COC(=O)c1cccnc1Cl)Nc1ccc(N2CCCCC2)cc1,0.4%,-0.4,38,.,.,-15,-1.7%
CC(=O)Nc1ccc(-c2ccc(NC(C)=O)c(O)c2)cc1O,0.3%,.,.,-9%,4.7,4,-12%
CC(C)CCOc1ccc(C2N=C(N)Nc3nc4ccccc4n32)cc1 (centres undefined),1.9%,0.2,-18,.,.,.,-0.7%
CN1CCSc2ccc(C(=O)NCc3ccccc3)cc21,0.4%&0.4%,-0.4&-0.7,10&1,-10%,1.0,-8,4.0%&3.6%
O=C(NCc1ccccc1)c1cc(C2COCCN2C(=O)C2CC2)on1 (centres undefined),3.1%,-0.3,.,.,.,.,-1.3%
COc1cc(C2(c3ccc(O)c(OC)c3)C(=O)Nc3c(Br)cc(Br)cc32)ccc1O,12%,1.1,24,.,.,.,-2.5%
CC(C(=O)N1CCOCC1)N1C(=O)c2cccc3cccc(c23)C1=O (centres undefined),0.4%,0.5,8,6%,-1.9,1,-21%
O=C(Cc1ccccc1)NCC(=O)N/N=C/c1cccs1,0.6%,-0.3,-12,7%,.,1,-1.5%
CCN1CCC(NC(=O)Nc2cc(Cl)ccc2OC)CC1,-0.2%,0.1,14,-4%,2.7,12,.
